High-throughput results as filed in PubChem.
PKD1 kinase inh = inhibitors of human PKD1 kinase, biochemical, fluorescence polarization. PKD1 kinase fluorescence polarization assay. inhibition, %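 (about 10 µM by stock and volumes)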. 0.056% of 200,000 active. Serine/threonine-protein kinase D1 (Homo sapiens), Q15139;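 active = inhibition of 50% or more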;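 also: controls were vehicle for no effect and a reference inhibitor for full effect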
Insulin prom inh = inhibitors of insulin promoter-driven GFP, primary screen, imaging, TRM-6 cells (human fetal islet line), eGFP reporter, cell count; inhibition, % at 2 µM; reporter expression induced with tamoxifen; 0.9% of 130,000 active;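 active = inhibition above the mean plus 3 SD, with well images judged a real hit on visual review, cut at about 60% in these data, passing the limit was not always enough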
GALR2 agonist = GALR2 receptor agonists, primary screen, cell-based. Galanin receptor type 2 (Homo sapiens), O43603. GALR2-expressing cells, agonist activation read-out. activation, %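 (tested at 5 µM)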. 0.48% of 140,000 active. AID 803, 2007;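 active = above mean plus 3 SD of all compounds, about 5% in these data, not always enough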;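 also: 0% = vehicle buffer wells and 100% = reference agonist at full effect; tested in CHO reporter cells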
Target sequence (O43603 whole entry, looked up): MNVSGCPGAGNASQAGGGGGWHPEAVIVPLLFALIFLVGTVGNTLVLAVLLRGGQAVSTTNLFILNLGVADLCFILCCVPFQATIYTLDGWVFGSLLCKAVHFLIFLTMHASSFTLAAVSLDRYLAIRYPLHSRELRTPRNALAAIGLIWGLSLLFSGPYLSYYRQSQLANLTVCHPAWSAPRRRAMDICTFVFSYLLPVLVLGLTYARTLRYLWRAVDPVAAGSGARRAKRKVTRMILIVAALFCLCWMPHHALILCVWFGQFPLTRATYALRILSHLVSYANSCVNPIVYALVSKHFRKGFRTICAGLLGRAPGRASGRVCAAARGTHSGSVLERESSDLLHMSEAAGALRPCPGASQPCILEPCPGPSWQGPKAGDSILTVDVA
HSV augment = enhancers of HSV replication in host cells, fold increase, host cell viability; HSV replication augmentation in cells; maximum fold increase; 0.005% of 220,000 active; AID 1956, 2009;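 active = peak rise of 1.5-fold or more in the series; tested in PC3 cells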;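 also: first round at 10 µM; read as green reporter fluorescence; hits show the peak of a series up to 25 µM; 1 = signal of infected wells without compound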
RGS16-Gao = modulators of RGS16 binding to Galphao, primary screen, biochemical, human proteins, multiplexed bead flow cytometry | binding response (% of control), % at 10 µM | 0.38% of 220,000 active | bead-based flow cytometry RGS16-Galphao binding, fluorescence; actives lie on both sides | Regulator of G-protein signaling 16 (Homo sapiens) + Guanine nucleotide-binding protein …;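 active = below 25% or above 175%, edge rows of some plates excepted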;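 also: Galphao activated by GDP with aluminum fluoride before binding; 100% = wells without compound and 0% = beads without RGS; some results beyond the cut were filed as inactive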
Target sequence (O15492 whole entry, looked up): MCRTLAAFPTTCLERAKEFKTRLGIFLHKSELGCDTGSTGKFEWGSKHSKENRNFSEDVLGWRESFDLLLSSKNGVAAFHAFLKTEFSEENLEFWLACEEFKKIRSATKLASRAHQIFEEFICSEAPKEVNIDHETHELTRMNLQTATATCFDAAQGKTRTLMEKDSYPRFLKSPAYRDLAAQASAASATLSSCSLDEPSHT
Target sequence (P09471 whole entry, looked up): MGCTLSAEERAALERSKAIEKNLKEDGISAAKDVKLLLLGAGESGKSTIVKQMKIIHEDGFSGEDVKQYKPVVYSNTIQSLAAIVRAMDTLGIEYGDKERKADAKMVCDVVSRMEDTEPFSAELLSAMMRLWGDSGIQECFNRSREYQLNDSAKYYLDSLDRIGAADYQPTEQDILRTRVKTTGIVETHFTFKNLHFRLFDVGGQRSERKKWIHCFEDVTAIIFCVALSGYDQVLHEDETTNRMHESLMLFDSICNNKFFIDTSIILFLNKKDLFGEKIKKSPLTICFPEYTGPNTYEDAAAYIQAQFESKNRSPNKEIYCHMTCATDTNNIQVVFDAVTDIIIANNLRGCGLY
Insulin prom inh cell count = also measured in Insulin prom inh; calls as there; normalized cell count, %; measured here: cell count, toxicity; reference of the scale not given here;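 cells exposed to compound for 48 h; stained nuclei by imaging scaled within each plate; lower means fewer cells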
HSV augment primary fold = also measured in HSV augment; calls as there; fold increase; compound at 10 µM; measured here: primary screen fold increase 10 uM; tested in PC3 cells;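 GFP signal in the first replicate; 1 = infected wells without compound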
The depositor's hits bear a star; i = inactive; · = not tested or not shown; & = joins results of further samples.

SMILES	PKD1 kinase inh	Insulin prom inh	Insulin prom inh cell count	GALR2 agonist	HSV augment	HSV augment primary fold	RGS16-Gao
Cc1cc(C)c(C#N)c(Oc2ccc(F)cc2)n1	-4	0	92	-0.7	i	0.89	113
CC(=O)Oc1ccc(NC(=O)C2CCCCC2)c(C(=O)O)c1	5	·	·	-1.6	i	0.83	89
Cc1ccc(-n2nc(-c3ccccc3)cc2Nc2ccccc2N)cc1	-7	-271	129	-0.9	i	1.1	108
CC1=NN(c2cccc(Cl)c2)C(=O)C1	·	·	·	·	i	0.97	98
C[c-]1[c-](C)[c-](C)[c-](C)[c-]1C.[Fe].c1cc2nccc(N3CCCC3)[c-]2c1 (stereo not drawn)	·	·	·	·	i	1.1&0.75	104&98
Cc1cc2c([nH]c3ccccc32)c2c1OC(C)(C)C=C2	·	·	·	·	i	0.96	110
Cc1ccc(-c2cc(-c3ccccc3)no2)c(O)c1	-9	·	·	-1.0	i	1.1	97
Nc1ccc(Cl)c(S(=O)(=O)Nc2cccc(Cl)c2)c1	-4	·	·	·	i	0.81	99
CCOc1cccc2sc(N(CCCN(C)C)C(=O)Cc3ccccc3)nc12	-6	·	·	·	i	0.74	102
CCOc1ccc(C(CC(=O)O)NC(=O)C23CC4CC(CC(C4)C2)C3)cc1 (stereo not drawn)	-1	26	112	-1.0	i	0.82	93
CO/N=C(\Cn1ncc(N2CCOCC2)c(Br)c1=O)c1ccc(Cl)cc1	3	·	·	·	i	1.1	104
Cn1c2c(c(=O)n(C)c1=O)C(C(F)(F)F)(C(F)(F)F)N=C(c1ccc(Cl)cc1)N2	11	-73	38	-0.9	i	0.6	97
CC(=O)/C=C\c1cn(-c2ncc(C(F)(F)F)cc2Cl)c2ccccc12	6	3	91	-3.3	i	0.76	90
Cc1cc2c(c(=O)n1CC1CCCO1)C(c1ccco1)C(C#N)=C(N)O2 (stereo not drawn)	4	-64	111	-2.9	i	0.66	100
O=C(CSC1=NC(=O)C(c2ccccc2)C(=O)N1)Nc1ccccc1[N+](=O)[O-] (stereo not drawn)	1	·	·	·	i	0.85	104
Clc1ccc2nc(CSCc3ccccc3)cn2c1	0	·	·	·	i	0.88	99
CC(C(=O)N1CCc2ccccc21)N1CCc2ccccc2C1 (stereo not drawn)	-7	16	73	-2.1	i	0.74	101
O=C(NCc1ccco1)/C(=C/c1ccco1)NC(=O)c1ccco1	-9	·	·	·	i	1.1	102
COc1ccc(/C=N/NC(=O)CCn2c3ccccc3c3ccccc32)cc1OC	-6	30	98	0.0	i	0.82	114
O=C(N/N=C/c1sc(=O)n(-c2ccccc2)c1Cl)c1ccccc1	2	-6	128	0.6	i	1	101
Cc1ccc(S(=O)(=O)CCC(=O)N2CCN(c3ccc(Cl)cc3)CC2)cc1	9	-2	116	-2.0	i	0.94	92
COCCN(C(=O)CSc1nc2ccc(C)cc2[nH]1)c1c(N)n(Cc2ccccc2)c(=O)[nH]c1=O	-4	·	·	·	i	0.97	96
CC(C)C(=O)NC(=S)Nc1c(Cl)ccc2nsnc12	·	·	·	·	i	1.1	93
Cc1cc2cc(CNC(=O)c3cc4ccccc4o3)ccc2n1C	-7	·	·	-3.7	i	0.75	100
O=C(CSc1nnc(CNC(=O)c2ccco2)o1)Nc1nc2ccccc2s1	-2	50	44	·	i	0.98	110

Single records (already shown).
C[c-]1[c-](C)[c-](C)[c-](C)[c-]1C.[Fe].c1cc2nccc(N3CCCC3)[c-]2c1 (stereo not drawn) reads PKD1 kinase inh = ·; Insulin prom inh = ·; Insulin prom inh cell count = ·; GALR2 agonist = ·; HSV augment = i; HSV augment primary fold = 1.1&0.75; RGS16-Gao = 104&98
Cc1cc2cc(CNC(=O)c3cc4ccccc4o3)ccc2n1C reads PKD1 kinase inh = -7; Insulin prom inh = ·; Insulin prom inh cell count = ·; GALR2 agonist = -3.7; HSV augment = i; HSV augment primary fold = 0.75; RGS16-Gao = 100
CCOc1ccc(C(CC(=O)O)NC(=O)C23CC4CC(CC(C4)C2)C3)cc1 (stereo not drawn) reads PKD1 kinase inh = -1; Insulin prom inh = 26; Insulin prom inh cell count = 112; GALR2 agonist = -1.0; HSV augment = i; HSV augment primary fold = 0.82; RGS16-Gao = 93

Next structures:
SMILES	PKD1 kinase inh	Insulin prom inh	Insulin prom inh cell count	GALR2 agonist	HSV augment	HSV augment primary fold	RGS16-Gao
Cc1ccc(C(=O)CCNc2ccccc2)o1	-6	-12	30	-1.3	i	1	91
CN(C(=O)C1CCOC1)c1nnc(-c2ccncc2)s1 (stereo not drawn)	-1	25	86	-3.8	i	0.9	65
OCCC1CN(Cc2nc3ccccc3[nH]2)CCN1C1CCCC1 (stereo not drawn)	-2	·	·	·	i	0.97	98
N#Cc1cn(CC(=O)NCC2CCCO2)c2ccccc12 (stereo not drawn)	-2	43	125	-1.6	i	0.7	106
Cc1nn(-c2ccccc2)c(CC(C)(C)C(=O)O)c1C(=O)O	3	-184	71	-1.2	i	0.9	99
CCCCCOC(=O)C1=C(C)Nc2ncnn2C1c1cccs1 (stereo not drawn)	-6	-8	74	-3.3	i	0.87	106
COc1ccc2ccccc2c1/C=N/NC(=O)c1cccc(Br)c1	-4	-3	100	-0.7	i	0.8	93
Cc1ccccc1NC(=O)N1C2CCC1CC(O)(c1cccnc1)C2 (stereo not drawn)	2	-14	67	-1.0	i	0.88	102
Cc1c(C)c(C)c(/C=[N+](/C)[O-])c(C)c1C	-7	-100	55	-0.8	i	0.98	77
CNn1cnc2ccsc2c1=O	·	·	·	·	i	1.1	108
COc1cc(C2N(c3ccc(Cl)c(Cl)c3)C(=O)C3CCCN32)cc(OC)c1OC (stereo not drawn)	-12	·	·	-2.4	i	0.97	106
Cc1ccc(S(=O)(=O)N2CCN(C(=O)CSc3nnnn3C)CC2)c(C)c1	-2	-47	151	·	i	1.1	106
COc1cccc(NC(=S)N(CCCN2CCN(C)CC2)Cc2ccco2)c1	3	·	·	·	i	0.88	105
COc1cc2c(C(=O)N3CCCc4ccccc43)cn(C)c(=O)c2cc1OC	-6	-4	72	-2.2	i	0.98	95
COc1ccc(-n2c(SCC(=O)Nc3ccccc3)nc(O)cc2=O)cc1	·	·	·	·	i	1.2	101
C/C(=N\NC(=O)c1ccc(Cl)cc1)c1ccc(Br)s1	-5	·	·	-2.8	i	0.96	98
Cc1ccc(CNC(=O)CCCc2nc3ccccc3s2)cc1	-11	13	212	-2.1	i	0.9	96
CCOC(=O)c1c(NC(=O)CCC(=O)NCc2ccco2)sc2c1CCCC2	-7	·	·	1.3	i	0.99	106
O=S(=O)(/N=C(/Nc1ccc(F)cc1F)c1ccc(Cl)cc1)c1ccccc1	-5	25	108	-0.5	i	1	98
CC(C)c1ccc(/C=N/NC(=O)c2cc(-c3cccc([N+](=O)[O-])c3)n[nH]2)cc1	·	·	·	·	i	0.89	108
COc1ccc(S(=O)(=O)N(CC(=O)NCc2ccco2)C2CCCCC2)cc1OC	-6	·	·	-1.2	i	0.95	110
OCCN1CCN(c2ncnc3c2sc2nc(N4CCOCC4)c4c(c23)CCC4)CC1	5	·	·	2.4	i	0.85	202
C(=C\N1CCCCCC1)/c1nnnn1-c1ccc(-c2ccccc2)cc1	·	·	·	·	i	0.94	118
COc1ccc(NC(=O)c2c(-c3ccccc3)noc2C)c(OC)c1	-8	-7	129	-0.2	i	0.99	85
CCOc1ncccc1C(=O)OCC(=O)N1CCN(S(=O)(=O)c2ccccc2)CC1	-9	·	·	-2.2	i	0.97	18

Other structures follow.
SMILES	PKD1 kinase inh	Insulin prom inh	Insulin prom inh cell count	GALR2 agonist	HSV augment	HSV augment primary fold	RGS16-Gao
CCC(C)NS(=O)(=O)c1ccc(NC(=O)CCC2CCCCC2)cc1 (stereo not drawn)	0	0	35	0.4	i	0.91	106
Cc1nonc1OCCNCc1c(C(=O)N2CCCCCCC2)nc2ccc(Cl)cn12	-5	·	·	·	i	1	97
CN(Cc1nc(-c2cnccn2)no1)CC1CCN(Cc2ccccc2)CC1	-2	·	·	·	i	1	107
Cc1ccc(-c2nc(C)sc2CC(=O)Nc2nnc(C)s2)cc1	3	·	·	·	i	0.98	100
CCCC(O)(c1ccc(OC)cc1)C(CN1CCOCC1)c1ccccc1 (stereo not drawn)	6	-14	63	·	i	0.93	104
O=C(NCc1ccccn1)c1ccccc1-c1ccccc1	0	·	·	·	i	0.98	90
C=CCc1cc(Cl)ccc1OCCCNC(C)C	0	·	·	0.3	i	0.83	102
O=C(O)CCCNc1n[nH]c(=O)[nH]c1=O	-9	·	·	·	i	0.97	109
Cn1c(=O)c2c(nc(CN3CCOCC3)n2CCN2CCOCC2)n(C)c1=O	-11	·	·	-0.6	i	0.97	107
Cc1ccc(SCC(=O)Nc2cccc(C)c2)cc1	-6	·	·	·	i	1.1	94
NC(=O)c1ccc(NC(=O)COC(=O)c2ccccc2Nc2ccccc2)cc1	-10	·	·	·	i	0.99	99
O=C(Cn1cc(SCc2ccccc2Cl)c2ccccc21)N1CCOCC1	1	·	·	-1.4	i	1.1	103
Cc1cc(N=NC(=O)c2ccccc2)ccc1O	-1	·	·	·	i	1	97
CC(C)CCNC(=O)NC(=O)CN1C(=O)NC2(CCCCC2)C1=O	-8	38	88	-0.4	i	0.94	81
COc1ccc(NC(=O)COc2ccc(/C=N/O)cc2OC)cc1	-3	·	·	·	i	0.94	99
CCOCCCNC(=O)C(NC(=O)c1ccc(=O)[nH]c1)c1ccc(Cl)cc1 (stereo not drawn)	-13	·	·	-0.7	i	0.76	100
CCn1c(/C=C/Nc2ccccc2)[n+](CC)c2ccc(Cl)cc21	5	-38	92	-1.2	i	1	108
COc1ccc(S(=O)(=O)N(C(=O)c2ccncc2)c2ccc3oc4c(c3c2)CCCC4)cc1	6	21	141	-1.2	i	0.78	97
O=C(/C=C/c1ccccc1)N(c1ccccn1)C1CCCCC1	0	4	95	-1.9	i	0.96	103
COc1cc(-n2c(=O)c3ccccc3n(CC(=O)c3ccc(Br)cc3)c2=O)cc(OC)c1OC	1	0	117	·	i	0.79	99
COc1cccc(-c2nnc(N)o2)c1	·	·	·	·	i	0.79	85
Nc1ccccc1C(=O)NNc1ncc(C(F)(F)F)cc1Cl	-9	·	·	-2.0	i	0.78	102
Cc1cc(C)n(-c2nc3ccccc3nc2Nc2ccc(CC(=O)O)cc2)n1	-4	·	·	-1.9	i	0.97	102
CCn1c2ccccc2c2cc(NC(=O)CCCN3C(=O)CCC3=O)ccc21	-10	42	110	-1.5	i	0.91	106
CO[C@H]1C=CO[C@@]2(C)Oc3c(C)c(O)c4c(O)c(c(C=NN5CCN(C)CC5)c(O)c4c3C2=O)NC(=O)C(C)=CC=C[C@H](C)[C@H](O)[C@@H](C)[C@@H](O)[C@@H](C)[C@H](OC(C)=O)[C@@H]1C	0	0	66	0.0	i	0.78	·

Quoted at random: 3 entries already listed
SMILES	PKD1 kinase inh	Insulin prom inh	Insulin prom inh cell count	GALR2 agonist	HSV augment	HSV augment primary fold	RGS16-Gao
COc1cc(-n2c(=O)c3ccccc3n(CC(=O)c3ccc(Br)cc3)c2=O)cc(OC)c1OC	1	0	117	·	i	0.79	99
Cc1ccccc1NC(=O)N1C2CCC1CC(O)(c1cccnc1)C2 (stereo not drawn)	2	-14	67	-1.0	i	0.88	102
Cc1ccc(SCC(=O)Nc2cccc(C)c2)cc1	-6	·	·	·	i	1.1	94

Other entries follow:
SMILES	PKD1 kinase inh	Insulin prom inh	Insulin prom inh cell count	GALR2 agonist	HSV augment	HSV augment primary fold	RGS16-Gao
CCOc1ccc(C(C)=O)cc1NC(=O)/C=C\C(=O)O	5	·	·	·	i	1.1	101
N=C1C(c2ccccc2)=C(O)CN1NC(=O)c1ccc(Cl)cc1	6	·	·	·	i	0.82	103
O=C(CSc1nc(C2CC2)nc2ccccc12)NCc1ccc2c(c1)OCO2	17	31	82	-0.3	·	·	110
O=C(N/N=C/c1ccccn1)c1cccc(S(=O)(=O)N2CCCC2)c1	·	·	·	·	i	1.1	99
CCN(CC)c1nc(N)c2c(N)n(-c3ccccc3C)c(=S)c(C#N)c2c1C#N	-2	21	116	-1.2	i	1.1	104
Cc1cccc(C(=O)N/N=C/c2ccc(OC3CSC3)cc2)c1	-3	·	·	-2.5	i	0.8	95
CC(=O)NC(Cc1ccccc1)C(=O)NC1CCN(c2ncccc2[N+](=O)[O-])CC1 (stereo not drawn)	4	19	151	-0.2	i	0.92	100
CC(C)OP(=O)(c1ccc(N(C)C)cc1)C(O)c1ccccc1F (stereo not drawn)	-6	-19	129	-0.3	i	0.9	89
CCOC(=O)CCC(=O)N1CCOCCN(C(=O)CCC(=O)OCC)CCOCC1	-2	·	·	1.3	i	0.88	94
O=C(c1nc2ccccn2c1CNCCn1ccc2ccccc21)N1CCOCC1	·	·	·	·	i	0.98	101
